# Beta2AR agonist – activates human beta-2 adrenergic receptor causing internalization | 340,000 tested, 0.43% active | AID 504454 | response, % (concentration not given with the values) | Am2.2-beta2AR cells, FAP receptor internalization, flow cytometry; reference of the scale not given here | P07550;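 active = response above a set limit, near 3 SD of response in nonfluorescent compounds, cut at about 42% in these data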;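 note: stock transfer was 100 nL into about 11 µL; a reference agonist was the positive control; negative values mostly stem from fluorescent compounds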
# Beta cell apopt – blocks beta cell apoptosis; INS-1E cytokine-induced death, ATP luminescence, 48 h; percent of positive-control rescue, neutral wells zero; protection from apoptosis, % (concentration not given with the values); 300,000 tested, 0.8% active; AID 435005;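 active = all replicates at 75% or more, or half of them and the mean; inconclusive = half reach 75% but not the mean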;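 note: 0% = cytokine-treated negative control wells and 100% = positive control rescue; higher means more ATP so stronger rescue from cytokine killing; wells of about 40 µL received 100 nL stock; the first replicate is given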
# LANA-H2B inh – blocks KSHV LANA binding to histone H2A/H2B | Q9QR71 | inhibition, % (test concentration not listed) | 320,000 tested, 0.6% active | cell-free LANA-H2A/H2B peptide, fluorescence polarization; in the data active = inhibition mostly above about 10%, no sharp cut-off; inactive = mostly below about 6.7%;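 note: stock transfer was 7.5 nL into about 10 µL; 0% = median of vehicle wells and 100% = median of positive control wells; one replicate is shown; the record names a cut of 25% in any replicate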
# Target sequence (Q9QR71 whole entry, looked up): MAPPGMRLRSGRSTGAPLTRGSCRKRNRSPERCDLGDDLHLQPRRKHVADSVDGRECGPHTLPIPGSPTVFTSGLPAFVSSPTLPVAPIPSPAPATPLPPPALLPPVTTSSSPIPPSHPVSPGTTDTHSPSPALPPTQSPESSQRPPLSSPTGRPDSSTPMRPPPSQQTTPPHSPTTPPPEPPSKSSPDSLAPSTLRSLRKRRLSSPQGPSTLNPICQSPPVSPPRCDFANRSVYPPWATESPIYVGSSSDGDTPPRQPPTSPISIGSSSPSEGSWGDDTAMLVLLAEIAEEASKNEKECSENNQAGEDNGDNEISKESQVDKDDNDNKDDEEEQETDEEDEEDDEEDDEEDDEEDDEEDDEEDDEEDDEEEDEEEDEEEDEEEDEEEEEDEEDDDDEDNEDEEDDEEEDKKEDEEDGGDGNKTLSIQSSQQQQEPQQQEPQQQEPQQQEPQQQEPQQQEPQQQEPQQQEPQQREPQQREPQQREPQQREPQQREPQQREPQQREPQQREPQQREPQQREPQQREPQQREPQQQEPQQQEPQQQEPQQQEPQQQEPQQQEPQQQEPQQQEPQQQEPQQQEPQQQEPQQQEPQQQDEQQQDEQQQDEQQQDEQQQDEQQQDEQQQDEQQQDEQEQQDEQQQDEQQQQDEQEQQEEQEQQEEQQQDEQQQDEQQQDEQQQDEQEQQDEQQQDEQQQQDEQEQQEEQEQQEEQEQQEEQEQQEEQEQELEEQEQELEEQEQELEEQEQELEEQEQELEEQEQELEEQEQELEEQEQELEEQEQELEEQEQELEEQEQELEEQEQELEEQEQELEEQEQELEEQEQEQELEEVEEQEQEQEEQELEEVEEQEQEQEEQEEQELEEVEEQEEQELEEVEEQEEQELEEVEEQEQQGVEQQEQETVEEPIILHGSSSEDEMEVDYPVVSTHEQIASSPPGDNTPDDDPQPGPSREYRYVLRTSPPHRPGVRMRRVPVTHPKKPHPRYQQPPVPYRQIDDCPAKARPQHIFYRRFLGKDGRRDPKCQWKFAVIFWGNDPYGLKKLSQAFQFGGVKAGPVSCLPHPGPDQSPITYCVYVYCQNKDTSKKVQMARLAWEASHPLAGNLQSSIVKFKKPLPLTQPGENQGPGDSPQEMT
# RanGTP-Imp inh – inhibitors of RanGTP-importin-beta interaction, primary screen, biochemical, FRET, CFP-Ran, YFP-importin-beta, homogeneous | cell-free CFP-Ran/YFP-importin-beta FRET ratio | inhibition, % (test concentration not listed) | 300,000 tested, 1.1% active;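 active = most replicates above 15%; inconclusive = exactly half above 15%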;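 note: 0% = DMSO wells and 100% = Ran loaded with GDP instead of GTP; wells of about 40 µL received 100 nL stock; the first replicate is given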
# T cruzi repl – blocks replication of Trypanosoma cruzi. 300,000 tested, 1.4% active. inhibition, % (test concentration not listed). T. cruzi beta-gal in NIH3T3, luminescence, 90 h;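 active = mean inhibition across valid replicates above about 55%, limit read from the data; inconclusive = mean below that limit but half or more replicates reach it; inactive = mean below it, under half of replicates reach it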;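 note: signal also drops with host cell toxicity which is not excluded here; 0% = plate median of DMSO wells and 100% = zero luminescence signal; higher percent means less beta-gal luminescence so fewer parasites; stock transfer was 50 nL into about 50 µL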
# A1 inh – inhibitors of the anti-apoptotic protein A1, read as caspase activation; MEF A1-2A-BIM cells, Caspase-Glo 3/7 luminescence, 3 h; percent of clofoctol response, vehicle zero; AID 2462; 330,000 tested, 0.066% active; caspase activation, % (concentration not given with the values);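 active = over half of replicate activation scores above 10%, or exactly half above 10 with the replicate mean above 10; inconclusive = replicate mean below 10 yet half the replicates above 10; inactive = over half of replicates below 10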;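 note: wells of about 30 µL received 50 nL stock; many hits fall short of the cut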
# Calb FLC – affects C. albicans growth with fluconazole; C. albicans CaCi-2 (fluconazole-resistant clinical isolate) + fluconazole, Alamar Blue growth, 48 h; growth inhibition, % (test concentration not listed); 300,000 tested, 0.57% active;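 active = most replicates above 75%; inconclusive = exactly half above 75%; inactive = most below 75%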;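 note: all wells also contain fluconazole at 8 µg/ml as a sub-toxic cotreatment; 0% = median of DMSO wells and 100% = median of geldanamycin control wells; wells of about 8 µL received 7.5 nL stock; the first replicate is given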
# UCH37 DUB inh – blocks the human deubiquitinase UCH37; Q9Y5K5; purified proteasome/UCH37, Ub-AMC cleavage fluorescence; inhibition, % (concentration not given with the values); 330,000 tested, 0.33% active; AID 588478;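 active = mean of two replicates above 20%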;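 note: 0% = compound-free wells with enzyme and 100% = wells lacking proteasome; stock transfer was 100 nL into about 20 µL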
#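 System: Proteasome-associated human UCH37 deubiquitinase; Input: 0.15 nM proteasome in added enzyme buffer; Also added: Ub-AMC substrate from 1 µM stock; Incubation: 30 min compound-proteasome preincubation then 25 min substrate reaction, room temperature; Detection: fluorescence, ex 355 nm, em 460 nm; Read-out: % inhibition of Ub-AMC cleavage fluorescence; Benchmarks: no-proteasome and no-compound wells.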
# * = called active by the depositor; ? = inconclusive; nt = no result given.
SMILES,Beta2AR agonist,Beta cell apopt,LANA-H2B inh,RanGTP-Imp inh,T cruzi repl,A1 inh,Calb FLC,UCH37 DUB inh
COC(=O)c1ccc(CNC(=O)COC(=O)/C=C/c2ccc(OC)c(OC)c2)cc1,-4,-6,2.0,nt,nt,-0.5,nt,-20
CCn1c(=O)c2c(O)cc(=O)oc2c2ccccc21,2,1,2.9,4.7,-17,0.7,6,-27
CN1C(=O)NC(c2ccccc2)(C(F)(F)F)S/C1=C(/C#N)c1nnc(N2CCOCC2)n1-c1ccccc1 (configuration not stated),5,2,-2.0,-6.3,-11,0.5,34,9.0
Cc1cccc2cc(C#N)c(SCC(=O)N3CC(=O)Nc4ccccc43)nc12,-16,52,0.4,7.7,26,-0.2,7,-3.0
CCOC(=O)C1(CCc2ccccc2)CCN(Cc2ccc(O)cc2)CC1,6,13,1.9,5.8,2,0.6,8,nt
COc1ccc(NS(=O)(=O)c2cccc3cccnc23)cc1,4,1,1.9,-1.6,-7,-0.3,?,1.9
O=C(COC(=O)C1=NNC(=O)CC1)NCCc1ccccc1,6,-1,2.8,nt,-6,0.5,1,0.1
COc1cc2c(cc1OC)CN(C(=O)c1ccc(OC)c(S(=O)(=O)N3CCOCC3)c1)CC2,-1,-3,0.2,-1.9,-1,-0.8,0,3.9
COc1ccc2c(c1)c(C(=O)N/N=C/c1cn(C)c3ccccc13)c(C)n2C,0,-6,-6.1,2.8,-14,0.7,2,nt
COc1ccc(NC(=O)c2cc(S(=O)(=O)N3CCCC3)c[nH]2)cc1,0,-4,-1.2,0.1,-9,-0.2,0,4.7
COc1ccc(Br)cc1C(=O)Nc1cccc(-c2nnc(-c3ccco3)o2)c1,13,16,-2.2,0.4,10,-0.8,4,1.7
Cc1ccc(-c2[nH]nc3c2C(C)C(C#N)=C(N)O3)cc1 (configuration not stated),-7,5,-0.2,2.7,26,0.4,-2,0.8
C#CCSc1nnc(-c2cccc3ccccc23)o1,-3,5,-3.7,?,6,-1.5,-28,-12
CCOC(=O)Nc1ccc(OCc2nnc3c4ccccc4c(C)nn23)cc1,-8,3,-2.2,0.5,-1,-0.2,-4,1.9
Cc1cc(C)c(OCC(=O)OCC(=O)N(C)C2CCS(=O)(=O)C2)c(C)c1 (configuration not stated),-2,1,-1.2,8.9,-11,-0.7,4,2.3
COc1ccccc1NC(=O)C(=O)NCC1CCCN1S(=O)(=O)c1cccs1 (configuration not stated),-4,-11,4.1,-0.5,17,-0.3,5,nt
O=C(Cc1ccccc1)Nc1cccc(C(=O)N/N=C/c2ccco2)c1,-11,2,1.9,1.7,-6,1.5,-12,nt
CCc1ccc(NC(=O)CSc2nc(=O)n(CCN(C)C)c3c2CCCC3)cc1,-1,-4,-1.6,2.1,14,0.5,1,4.1
CCOC(=O)Cn1c(=O)oc2cc(S(=O)(=O)N3CCCC(C)C3)ccc21 (configuration not stated),10,2,-3.9,-0.5,-23,-1.0,-1,3.1
CCc1ccccc1-n1nnc(-c2ccccc2)n1,-2,0,-8.3,-4.3,-8,-0.7,-10,6.2
COCCNC(=S)NNc1cccc(C(=O)O)c1,4,-1,2.5,3.6,-25,0.4,18,2.6
CC1CCCCN1C(=O)CCn1c(=S)oc2ccccc21 (configuration not stated),-13,-2,-2.9,-3.1,3,-0.3,-4,5.7
COc1cc(/C=C/C(=O)OCC(=O)Nc2cccc(Oc3ccccc3)c2)ccc1O,4,-2,-4.6,1.3,8,-0.9,7,-12
COc1ccc(-c2noc(CN3CCN(c4ccccc4)CC3)n2)cc1,-8,-1,-2.0,-0.1,-11,0.0,3,4.0
COc1ccc2c(c1)C(=O)N(c1ccc(C)cc1C)C(=O)C2(C)C,-19,0,-5.3,5.1,3,1.3,-3,-25
C[C@H]1CN=C(Nc2ccccc2)N1CCCC1CCCC1,0,2,8.7,-3.2,-14,-0.2,-19,3.8
CCCCn1c(SCC(=O)OCC)nc2c(sc(=S)n2-c2ccccc2OC)c1=O,-1,5,-3.3,2.2,-1,?,3,3.1
Clc1ccc(Nc2ncnc3c2nnn3Cc2ccccc2)cc1,2,-3,-5.3,-0.5,12,-0.1,-1,-105
CC1(C(=O)O)CCC(C(=O)N2CCCCC2)C1(C)C (configuration not stated),-2,-5,-2.5,-0.7,-25,0.6,-4,7.1
CC(NC(=O)Nc1nnc(C(F)(F)F)s1)N1C(=O)C2C3C=CC(C3)C2C1=O (configuration not stated),4,-4,-1.1,-0.6,-12,1.9,-1,3.5
Cn1nnnc1Sc1ccc([N+](=O)[O-])cc1Cl,-5,-7,-3.0,3.1,-1,-0.1,1,2.2
CN1CCN(C(=O)/C=C/c2ccc3c(c2)OCO3)CC1,-3,1,7.5,5.9,-2,0.3,4,-32
CCCCN1C(N)=NC[C@@H]1CC1CCCCC1,6,1,1.6,0.4,3,-0.1,-20,-3.7
Cc1ccc(N(CCC(=O)NC(C)(C)C)S(=O)(=O)c2ccc(C)cc2)cc1,-4,4,8.5,-9.2,15,0.8,-26,1.9
CCOC(=O)c1c(NC(=O)CCl)sc(C(=O)N(CC)CC)c1C,16,-12,0.7,0.5,-16,1.0,-5,2.2
CCC(C)Sc1nnc(NC(=O)c2ccco2)s1 (configuration not stated),-3,-3,-5.3,-1.6,-4,-1.6,-2,nt

# One compound at a time (already shown).
# Shown for O=C(COC(=O)C1=NNC(=O)CC1)NCCc1ccccc1 : Beta2AR agonist = 6; Beta cell apopt = -1; LANA-H2B inh = 2.8; RanGTP-Imp inh = nt; T cruzi repl = -6; A1 inh = 0.5; Calb FLC = 1; UCH37 DUB inh = 0.1
# Shown for C[C@H]1CN=C(Nc2ccccc2)N1CCCC1CCCC1 : Beta2AR agonist = 0; Beta cell apopt = 2; LANA-H2B inh = 8.7; RanGTP-Imp inh = -3.2; T cruzi repl = -14; A1 inh = -0.2; Calb FLC = -19; UCH37 DUB inh = 3.8
# Shown for CCOC(=O)Nc1ccc(OCc2nnc3c4ccccc4c(C)nn23)cc1 : Beta2AR agonist = -8; Beta cell apopt = 3; LANA-H2B inh = -2.2; RanGTP-Imp inh = 0.5; T cruzi repl = -1; A1 inh = -0.2; Calb FLC = -4; UCH37 DUB inh = 1.9

# Next part.
SMILES,Beta2AR agonist,Beta cell apopt,LANA-H2B inh,RanGTP-Imp inh,T cruzi repl,A1 inh,Calb FLC,UCH37 DUB inh
Cc1[nH]n(-c2ccccc2)c(=O)c1-c1ccccc1,6,0,-1.8,1.5,-32,-0.1,-7,1.6
O=C(c1ccccc1)N1CCN(Cc2ccccc2Br)CC1,1,9,-1.8,nt,nt,2.3,nt,4.5
CC1(C)CC(NS(=O)(=O)c2ccc(F)cc2)CC(C)(C)N1,-1,-4,-1.7,-3.1,-3,1.4,-6,nt
CC1(C)Cc2c(cnn2-c2ccccc2)C(NC(=O)c2ccc[n+]([O-])c2)C1 (configuration not stated),11,-2,-1.5,3.9,-12,0.5,2,4.6
CN(Cc1ccccc1F)C(=O)c1sccc1-c1ccccc1,6,-2,-0.9,0.0,6,0.4,-19,6.6
COc1ccc(CNC(=O)C2CCN(S(=O)(=O)N3CCC4(CC3)OCCO4)CC2)c(OC)c1,-3,-4,-1.6,1.9,-3,0.1,0,4.9
CC[C@@H](C)C(NC(=O)OC(C)(C)C)c1cn([C@@H](CCCCNC(=O)OC(C)(C)C)C(=O)N2CCN(C(=O)OC(C)(C)C)CC2)nn1 (some centres not stated),6,5,2.2,0.4,0,0.4,3,5.6
COc1ccccc1N1CCN(/N=C/C(Cl)=C/c2ccccc2)CC1,-7,-3,-7.3,?,12,-6.5,-1,nt
CC(=O)c1ccc(NC(=S)NC(=O)CC(C)C)cc1,-1,-1,2.0,-1.5,13,0.4,-27,3.3
CCCCNC(=S)N=Nc1c(O)[nH]c2ccccc12,-12,nt,3.3,0.3,-13,-1.8,?,3.9
CCOc1ccc(N(CC(=O)Nc2ccccc2OCC)S(=O)(=O)c2c(C)noc2C)cc1,23,41,0.6,0.3,25,0.6,10,3.8
C/C(=N\Nc1ccc(F)cc1F)c1cccs1,nt,-4,-1.9,-0.1,-25,-0.8,-45,nt
COc1cc(/C=N\NC(=O)CNC(=O)C2COc3ccccc3O2)ccc1O (configuration not stated),-5,3,-4.2,3.6,4,1.1,-10,nt
CCOC(=O)C1=C(O)CSC1=Nc1cccc(Cl)c1,9,3,-3.1,-4.7,nt,-0.6,-6,4.4
O=C(O)CNC(=O)C(Cc1ccccc1)NC(=O)OCc1ccccc1 (configuration not stated),-3,-10,9.0,?,-7,-0.1,-5,1.6
Cc1cccc(NC(=O)CSc2cccc[n+]2[O-])c1C,-2,1,-0.5,nt,nt,-0.5,nt,-1.1
O=C(NC1CCS(=O)(=O)C1)c1ccc(S(=O)(=O)N2CCCC2)cc1 (configuration not stated),-2,-1,-1.0,5.8,-12,-1.4,-2,0.4
COc1ccc(C)cc1NC(=O)c1cc(-c2ccccc2)nc2c1cnn2C(C)C,0,16,4.4,nt,nt,-0.7,nt,1.5
Cc1nc2ccccc2n1CCc1nc2c3ccccc3nc(=S)n2[nH]1,-13,8,-4.3,-4.5,-37,-0.8,-5,8.3
O=C(Nc1c2c(nn1-c1ccccc1)CS(=O)C2)c1ccc(S(=O)(=O)N2CCOCC2)cc1 (configuration not stated),-1,4,-1.5,-0.6,-13,0.8,-8,3.9
CCNC(=O)n1cc(-n2cncn2)c(-c2ccc(Cl)cc2)n1,-6,1,7.2,0.1,7,1.0,-2,1.7
COc1ccc(C(=O)Nc2ccc(Cl)cn2)cc1Cl,-2,2,-0.8,1.2,-7,-2.5,-9,1.3
CC(=O)c1ccc(CCCCCCCCCC(=O)O)s1,2,3,2.8*,0.7,-10,0.6,4,0.4
CC(C)CNC(=O)COC(=O)c1cc(S(=O)(=O)N2CCCCC2)ccc1N1CCOCC1,4,-2,-0.4,0.6,16,0.5,25,0.1
Cn1c(CNC(=O)CNS(=O)(=O)c2ccc(F)cc2F)cc(=O)n(C)c1=O,11,0,0.5,-0.9,5,-1.5,nt,1.6
CC(=O)c1cccc(NC(=O)CC2Oc3ccc(C)cc3NC2=O)c1 (configuration not stated),2,-2,0.4,0.4,-3,0.4,0,2.8
C=CC(=O)Nc1cccc(Oc2cc(Cl)nc3[nH]ccc23)c1,-5,-6,-0.8,nt,nt,2.0,nt,2.7
Cc1cc(C)cc(Oc2coc3cc(O)ccc3c2=O)c1,1,-5,-2.3,?,-14,2.2,-10,-92

# Only LANA-H2B inh and Calb FLC (2 entries from above):
molecule | LANA-H2B inh | Calb FLC
COc1cc(/C=C/C(=O)OCC(=O)Nc2cccc(Oc3ccccc3)c2)ccc1O | -4.6 | 7
COc1ccc(-c2noc(CN3CCN(c4ccccc4)CC3)n2)cc1 | -2.0 | 3

# Compound activity as filed in PubChem BioAssay.
